Vaccinia Venus = inhibitors of vaccinia virus (Venus reporter) | Vaccinia virus Venus reporter expression, fluorescence | Potency, µM (series often up to 36.5 µM), inactives show top-dose activity change, negative = inhibition, most hits filed as inhibitors | 330,000 compounds, 0.46% hits; active means well fitted inhibition curve with a large enough effect; inconclusive means small, poorly fitted or top-dose-only effect; inactive means no such curve, though single readings can be large or run the other way; tested in A549 cells; note: nearly all actives have a fitted effect of over 30% in size; inactives centre near -10
Vaccinia mCherry = inhibitors of vaccinia virus infection (mCherry reporter signal). Vaccinia virus mCherry reporter infection, fluorescence; about a quarter of the inactives have no number. Potency, µM (highest dose often 36.5 µM), inactives show at the top dose activity change, negative = inhibition, hits mostly inhibitors. 310,000 compounds, 0.63% hits. AID 720579; active = well fitted inhibition curve with a large enough effect; inconclusive = small, poorly fitted or top-dose-only effect; inactive = no such curve, though single readings can be large or run the other way; tested in A549 cells; note: nearly all actives have a fitted effect of over 35% in size; inactives centre near -10
* hit, by the source's call; i = inactive; ? = inconclusive; . = not tested or not shown; & = joins results of further samples. % is set by controls: 0 for no effect and ±100 for the full control effect; potency is the fitted concentration of half-maximal effect. Compounds were not picked by outcome; about 0.82% have a hit in one of these screens.

SMILES | Vaccinia Venus | Vaccinia mCherry
O=C(c1ccc(Br)cc1)N1CCN(CCc2ccncc2)CC1 | 2% | -9%
Cc1ccc(C(=O)Nc2cccc(-c3nc(CNC(=O)c4cccc(N(C)C)c4)c(C)o3)c2)s1 | -14% | -26%
O=[N+]([O-])c1ccc(C=NNC(=S)NN=Cc2ccc([N+](=O)[O-])cc2)cc1 | -4% | ?
c1ccc(Cn2nnc3ccccc32)cc1 | -4% | i
Cc1ccc(-c2csc3ncn(CC(=O)N4CCOCC4)c(=O)c23)cc1C | -20% | -1%
N#Cc1cccn1-c1nccc(-c2cccs2)n1 | -8% | -10%
O=C(c1ccc(-c2cc3ccccc3oc2=O)cc1)N1CCN(c2ccc(Cl)cc2[N+](=O)[O-])CC1 | -21% | i
C=CCn1c(C)cc(C(=O)COc2ncnc3sccc23)c1C | -11% | i
O=C(O)CCCNc1ccc([N+](=O)[O-])c(NCCCC(=O)O)n1 | -12% | -8%
CC(C)CC(C(=O)OCC(=O)Nc1cccc(Cl)c1)N1C(=O)C2CC=CCC2C1=O (configuration not stated) | -7% | i
C[C@H](CO)N1C[C@H](C)[C@@H](CN(C)Cc2ccc(C(=O)O)cc2)Oc2c(NC(=O)Cc3ccccc3)cccc2C1=O | -6% | -20%
Cn1cc(S(=O)(=O)CC(=O)Nc2ccc(Br)cc2)c2ccccc21 | -16% | -5%
Cc1cccc(Cc2nnc(CCC(=O)N3CCCCC3c3nccs3)o2)c1 (configuration not stated) | -17% | -5%
Cc1cc(=O)[nH]c(NN=C2CCC(C(C)(C)C)CC2)n1 (configuration not stated) | -5% | ?
Cc1sc2ncnc(N[C@@H](Cc3ccccc3)C(=O)O)c2c1C | 2% | -14%
CCCN(CC(=O)Nc1ccc(F)c(F)c1F)C(=O)c1ccc(=O)n(Cc2ccccc2)n1 | -23% | -5%
Cc1cc(S(=O)(=O)Nc2ccc(N3CCOCC3)cc2)ccc1Br | 1% | ?
CC(=O)N(Cc1cccnc1)c1nc2cc(C)cc(C)c2s1 | -12% | i
CCCCCC(=O)Nc1cc(S(=O)(=O)N2CCOCC2)ccc1N1CCCCC1 | -2% | -17%
NS(=O)(=O)c1ccc(CCNC(=O)CSc2nnc3ccccn23)cc1 | -10% | i
CCOC(=O)Cn1nc(C)c(NC(=O)c2ccc(Cl)c([N+](=O)[O-])c2)c1C | -21% | i
Cc1ccc(C(=O)OCC(=O)NC2CCCC(C)C2C)s1 (configuration not stated) | -6% | i
N#Cc1c2n(c(=S)n(-c3ccccc3)c1=O)CCCCC2 | -12% | -13%
CCOc1ccc(CCNC(=O)COC(=O)c2cc(OC)c(OC)cc2[N+](=O)[O-])cc1OCC | -15% | i
Cc1cc(C)nc(SCC(=O)Nc2ccc(S(=O)(=O)Nc3cc(C)on3)cc2)n1 | 8% | i

Other entries follow.
SMILES | Vaccinia Venus | Vaccinia mCherry
O=C(COc1ncnc2cc(Cl)ccc12)c1ccc2c(c1)OCCO2 | -8% | -13%
CCCNc1ncnc2c1cnn2C1CCCCO1 (configuration not stated) | -4% | i
COC(=O)c1cn(Cc2c(C)cc(C)cc2C)nn1 | -3% | -12%
COc1ccc2o/c(=N\O)c(C(=O)Nc3ccc(C)cc3)cc2c1 | ? | -17%
COc1ccc(C(=O)NCc2cn3c(C)csc3n2)cc1OC | -3% | -13%
COc1ccc(-c2csc(C)n2)cc1 | -14% | i
CC1=C(C(=O)OC(C)C)C(c2c(O)ccc3ccccc23)NC(=O)N1 (configuration not stated) | -18% | ?
COc1cccc(-c2nnc(SCN3C(=O)c4ccccc4C3=O)n2C)c1 | -18% | i
O=C(CCN1C(=O)c2ccccc2S1(=O)=O)N1CCN(c2ccccc2)CC1 | -14% | .
OC(Cc1cccnc1)c1ccccc1 (configuration not stated) | -1% | -9%
O=C(O)C1C2C=CC(C2)C1C(=O)Nc1ccc(C(=O)N2CCCCC2)c(Cl)c1 (configuration not stated) | -3% | -3%
O=C(Nc1nnc(CCc2ccccc2)s1)c1ccc(F)cc1 | -8% | 0%
O=[N+]([O-])c1ccc(C(O)CN2CCN(c3ccccc3)CC2)cc1 (configuration not stated) | -5% | -3%
CCn1c(Cc2ccc(OC)cc2)nnc1SCC(=O)NC1CC1 | -6% | i
COc1cc(NC(=O)C2C3C=CC(C3)C2C(=O)O)ccc1NC(=O)c1ccccc1 (configuration not stated) | -1% | -4%
COc1ccccc1N/C=C/C(=C(C#N)C#N)N(C)C | 5% | 0%
O=C(NCCN1CCOCC1)c1ccccc1[N+](=O)[O-] | -4% | -4%
Cc1ccc(Nc2nc(NCC3CC3)nc3ccsc23)c(C)c1 | ? | -22%
COc1ccc(-n2c(/C=C/c3ccccc3F)nc3cc(OC)c(OC)cc3c2=O)cc1Cl | -23% | -25%
Cc1cc(C(=O)CN2CCCCC2)c(C)n1-c1ccc(F)cc1 | -1% | i
O=C(NC1CCCC1)C1CCN(C(=O)c2cc(Cl)ccc2Cl)CC1 | -2% | 8%
O=C(Nc1ccsc1C(=O)O)c1ccccc1 | -5% | -2%
Cc1ccc(C(=O)N2C3C=CC(C3)C2(C(F)(F)F)C(F)(F)F)cc1 (configuration not stated) | -4% | .
C[C@@]12CCC3c4ccc(OS(=O)(=O)O)cc4CCC3C1CCC2O (some centres not stated) | 0% | i
CCOC(=O)N1CCN(C(=O)c2cn(C)c3ccc(S(=O)(=O)N4CCC(C)CC4)cc3c2=O)CC1 | 1% | -26%

Quoted at random: 4 records from the list
SMILES | Vaccinia Venus | Vaccinia mCherry
COc1ccc(-c2csc(C)n2)cc1 | -14% | i
CCOC(=O)N1CCN(C(=O)c2cn(C)c3ccc(S(=O)(=O)N4CCC(C)CC4)cc3c2=O)CC1 | 1% | -26%
CCn1c(Cc2ccc(OC)cc2)nnc1SCC(=O)NC1CC1 | -6% | i
CCCNc1ncnc2c1cnn2C1CCCCO1 (configuration not stated) | -4% | i

Single records, as listed above.
Record of COc1ccc2o/c(=N\O)c(C(=O)Nc3ccc(C)cc3)cc2c1 = Vaccinia Venus = ?; Vaccinia mCherry = -17%
Record of COc1cc(NC(=O)C2C3C=CC(C3)C2C(=O)O)ccc1NC(=O)c1ccccc1 (configuration not stated) = Vaccinia Venus = -1%; Vaccinia mCherry = -4%

Continued:
SMILES | Vaccinia Venus | Vaccinia mCherry
S=C(c1ccccc1)N1CCCC1 | -11% | -11%
COc1ccc2c(c1OC)C(=O)OC2Nc1nc(-c2ccc(-c3ccccc3)cc2)cs1 (configuration not stated) | ? | ?
COc1cc(OC)c(NC(=O)CCc2ccccc2)cc1Cl | -22% | ?
Cc1ccc(S(=O)ONc2cccc(NOS(=O)c3ccc(C)cc3)c2)cc1 (configuration not stated) | -20% | -15%
CC(/C=C/c1ccccc1)=N/NC(=O)c1cc([N+](=O)[O-])cc([N+](=O)[O-])c1 | -8% | -14%
COc1ccc(C2C(C(N)=O)=C(C)Nc3nc(-c4ccccc4Cl)nn32)c(OC)c1 (configuration not stated) | -7% | -8%
Cc1nnc(SCC(=O)NNC(=O)c2ccco2)n1-c1ccccc1 | -5% | i
O=C(NCC1OCCc2ccccc21)c1ccc(NC(=O)c2ccc(Cl)cc2)cc1 (configuration not stated) | ? | ?
COc1ccc(C)cc1NS(=O)(=O)c1ccc2c(c1)CCCN2C(C)=O | 0% | -9%
COc1ccccc1CCC(=O)Nc1ccc2c(c1)CN(Cc1ccc(CO)o1)CC2 | -10% | -8%
COc1ccccc1N1CCN(c2nc3ccc(C(=O)c4ccccc4)cc3n3c(C)nnc23)CC1 | -11% | -14%
COc1ccc(N2C(=O)C(C)C(Cc3ccc(C)cc3)C2=O)cc1 (configuration not stated) | -17% | i
Cc1cc(S(=O)(=O)NCc2cccnc2)ccc1F | -9% | i
Cn1c(SCC(=O)Nc2ccc(F)cc2)nnc1-c1cccnc1 | -8% | i
CCn1c(C(=O)N2CCC(C(=O)NCCc3ccc(OC)cc3OC)CC2)cc2sccc21 | -16% | -4%
COc1ccc(N(CC(=O)NC2CCCCC2)C(=O)CNC(=O)c2cccs2)cc1OC | -1% | -7%
COc1ccccc1C(=O)COC(=O)CSC(C)C(=O)Nc1cc(C)on1 (configuration not stated) | -8% | -13%
CC(C)(C)OC(=O)N1Cc2cc3ccccc3nc2C1 | -16% | 0%
Cn1c(Cc2cccs2)nnc1SCC(=O)Nc1ccccc1 | -10% | -7%
O=c1c(Cl)c(N2CCN(S(=O)(=O)c3ccc(F)cc3)CC2)cnn1-c1cccc(Cl)c1 | -10% | -28%
Cc1ccc(NC(=O)c2ccc(F)c(S(=O)(=O)N3CCc4ccccc4C3)c2)cc1F | -16% | -1%
CCOC(=O)c1cc2c(=O)n3ccccc3nc2n(CCCOC)c1=NC(=O)C(C)Oc1ccccc1 (configuration not stated) | -7% | -8%
Cc1ccccc1C(=O)Nc1ccccc1C(=O)N/N=C\c1ccco1 | -8% | -10%
O=C(CSc1nc2cccnc2n1Cc1ccccc1)NC1CCCCC1 | -16% | i
Clc1cccc(CSc2nnc(-c3sccc3-n3cccc3)o2)c1 | -22% | i

(more compounds)
SMILES | Vaccinia Venus | Vaccinia mCherry
COC(=O)C1=C(C)N=C2SCCC(=O)N2C1c1ccc(C(=O)OC)cc1 (configuration not stated) | -6% | -3%
Cc1ccc(CNc2cc(-c3nn4c(C)nnc4s3)ccc2C)s1 | -4% | i
Cc1nc2nc[nH]n2c(=O)c1NS(=O)(=O)c1ccc(F)cc1 | -18% | -14%
O=C(NCc1ccco1)C(c1cccnc1)N(C(=O)Cn1nnc2ccccc21)c1ccccc1 (configuration not stated) | -14% | .
O=C(NCc1ccc(Cl)cc1)N1CCc2ccccc2C1 | -6% | -8%
CCOc1ccc(S(=O)(=O)NCCC(=O)NCCc2ccc(C(C)C)cc2)cc1 | ? | -19%
COC(=O)[C@@]1(Cc2ccc(F)cc2)[C@H]2c3cc(C(=O)N(C)C)n(Cc4ccc(OC)c(OC)c4)c3C[C@H]2CN1C(=O)c1ccccc1 | -29% | -11%
Cc1ccc(OCC(=O)Nc2ccc3c(c2)nc(CCN2CCN(c4ccccn4)CC2)n3C)cc1 | -25% | -8%
CCOc1ccc2c(c1)NC(c1cccs1)=NC(c1ccc(F)cc1)=N2 | -11% | -9%
CCN(CC)c1ccc(/C=N/NC(=O)c2ccc3nc[nH]c3c2)cc1 | -14% | -2%
Cc1ccccc1-c1nnn(CC(=O)Nc2ccc3c(c2)OCCO3)n1 | -1% | i
COCCc1nn2c(=O)cc(COC(=O)COc3ccc(F)cc3)nc2s1 | -12% | -12%
CC(NC(=O)c1ccccc1)C(c1cccs1)N1CCOCC1 (configuration not stated) | 7% | -14%
COc1cccc(Cn2c(=O)n(CC3CCC(C(=O)N4CCOCC4)CC3)c(=O)c3sccc32)c1 (configuration not stated) | -9% | -16%
S=C(NCCSCc1ccc(Cl)cc1Cl)Nc1ccccc1 | ? | -30%
O=C(Nc1nnc(S(=O)(=O)Nc2ccccc2)s1)c1ccccc1Cl | -15%&-1% | -11%&-2%
CC(=O)Nc1ccc(S(=O)(=O)NC2CCSc3ccccc32)cc1 (configuration not stated) | -11% | -20%
COc1ccc(C(C)=O)cc1CSc1nncn1C | 2% | i
COc1ccccc1-c1cc(NC=O)c2ncc(-c3cccc(C(=O)N(C)C)c3)n2c1 | ? | ?
Cc1ccc(Cl)cc1N1CCN(C(c2ccc(F)cc2)c2nnc(-c3ccccc3)o2)CC1 (configuration not stated) | -9% | -11%
Cc1ccc(C(=O)NCC2CCCO2)cc1[N+](=O)[O-] (configuration not stated) | -10% | -9%
CC1CN(S(=O)(=O)c2cccc(C(F)(F)F)c2)CC(C)O1 (configuration not stated) | -10% | -21%
COc1cc(NC(=O)SC2=NCCS2)cc(OC)c1 | -3% | i
N#Cc1ccc(S(=O)(=O)N2CCN(c3nc(-c4cccs4)nc4ccccc34)CC2)cc1 | -15% | -21%
COC(=O)c1ccc(C(=O)OC)c(NC(=O)CSCc2ccc(Cl)cc2)c1 | -12% | .

The list continues:
SMILES | Vaccinia Venus | Vaccinia mCherry
Cc1cc(C)c(NC(=O)Cn2nc(-c3ccncc3)ccc2=O)c(C)c1 | -6% | -17%
COc1ccc(-c2cc(C(=O)N(C)CC(=O)Nc3ccccc3Br)c3ccccc3n2)cc1OC | -2% | i
CCCNC(=O)N(C)C[C@@H]1Oc2cc(C#CC(C)(C)O)ccc2S(=O)(=O)N([C@H](C)CO)C[C@H]1C | 3% | i
CC(C)c1ccc2oc(-c3cc(NC(=O)c4cccnc4)ccc3Cl)nc2c1 | -10% | -18%
O=C(NCCc1ccccc1)c1ccc2c(c1)N(Cc1ccc(F)cc1Cl)C(=O)CS2 | -1% | -3%
COC1=CC(=O)C(C2CC(=O)c3c(O)cc(O)cc3O2)=CC1=O (configuration not stated) | 19% | -14%
C=CC[C@H](CC(=O)N(CCO)Cc1ccccc1)C(=O)N[C@H](COC(=O)[C@H](CC=C)CC(=O)OC(C)(C)C)Cc1ccccc1 | ? | -12%

No new results follow: entries from further up.
SMILES | Vaccinia Venus | Vaccinia mCherry
O=C(NCCc1ccccc1)c1ccc2c(c1)N(Cc1ccc(F)cc1Cl)C(=O)CS2 | -1% | -3%
COC1=CC(=O)C(C2CC(=O)c3c(O)cc(O)cc3O2)=CC1=O (configuration not stated) | 19% | -14%
C=CC[C@H](CC(=O)N(CCO)Cc1ccccc1)C(=O)N[C@H](COC(=O)[C@H](CC=C)CC(=O)OC(C)(C)C)Cc1ccccc1 | ? | -12%

Bioassay records: PubChem BioAssay, National Center for Advancing Translational Sciences (NCATS)
